# Screening results as filed in PubChem BioAssay.
# T cruzi repl: blocks replication of Trypanosoma cruzi. T. cruzi beta-gal in NIH3T3, luminescence, 90 h. 1.4% of 300,000 active. inhibition, % (no concentration beside the values);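 active means mean inhibition across valid replicates above about 55%, limit read from the data; inconclusive means mean below that limit but half or more replicates reach it; inactive means mean below it, under half of replicates reach it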;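 further: signal also drops with host cell toxicity which is not excluded here; 0% = plate median of DMSO wells and 100% = zero luminescence signal; higher percent means less beta-gal luminescence so fewer parasites; stock transfer was 50 nL into about 50 µL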
# RanGTP-Imp inh: disruptors of Ran-importin-beta complex formation – biochemical, FRET, CFP-Ran, YFP-importin-beta, homogeneous, primary screen. AID 2216. cell-free CFP-Ran/YFP-importin-beta FRET ratio. 1.1% of 300,000 active. inhibition, % (concentration not given with the values);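 active means most replicates above 15%; inconclusive means exactly half above 15%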;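 further: 0% = DMSO wells and 100% = Ran loaded with GDP instead of GTP; wells of about 40 µL received 100 nL stock; the first replicate is given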
# Vif TR-FRET: HIV-1 Vif–A3G interaction blockers – biochemical, TR-FRET, GST-Vif 1-94, biotin-A3G peptide, dose response retest, primary screen (AID 1117319). 0.57% of 260,000 active. one-dose inhibition, %; IC50 in µM for titrated hits. TR-FRET GST-Vif / biotin-A3G peptide binding; higher % means a stronger effect; test concentration not given here; strong numbers were not always called active;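 active means above the screen mean plus three standard deviations and confirmed in dose response; inconclusive means results disagree or hit not tested in dose response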;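 further: Vif residues 1-94 fused to GST binding biotinylated APOBEC3G peptide 110-148; 0% = full assay without inhibitor and 100% = GST in place of GST-Vif; retest series ran down from 100 µM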
# LANA-H2A inh: blocks KSHV LANA binding to histone H2A/H2B. Q9QR71. 0.6% of 320,000 active. inhibition, % (test concentration not listed). cell-free LANA-H2A/H2B peptide, fluorescence polarization; in the data active means inhibition mostly above about 10%, no sharp cut-off; inactive means mostly below about 6.7%;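 further: stock transfer was 7.5 nL into about 10 µL; 0% = median of vehicle wells and 100% = median of positive control wells; one replicate is shown; the record names a cut of 25% in any replicate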
# Beta apoptosis: beta cell apoptosis inhibition; INS-1E cytokine-induced death, ATP luminescence, 48 h; percent of positive-control rescue, neutral wells zero; protection from apoptosis, % (no concentration beside the values); 0.8% of 300,000 active; AID 435005;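 active means all replicates at 75% or more, or half of them and the mean; inconclusive means half reach 75% but not the mean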;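 further: 0% = cytokine-treated negative control wells and 100% = positive control rescue; higher means more ATP so stronger rescue from cytokine killing; wells of about 40 µL received 100 nL stock; the first replicate is given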
# Bfl-1 A1 inh: inhibitors of the anti-apoptotic protein A1, read as caspase activation | MEF A1-2A-BIM cells, Caspase-Glo 3/7 luminescence, 3 h; percent of clofoctol response, vehicle zero | caspase activation, % (no concentration beside the values) | 0.066% of 330,000 active | AID 2462;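 active means over half of replicate activation scores above 10%, or exactly half above 10 with the replicate mean above 10; inconclusive means replicate mean below 10 yet half the replicates above 10; inactive means over half of replicates below 10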;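 further: wells of about 30 µL received 50 nL stock; many hits fall short of the cut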
# MLL AF4-AF9 inh: MLL-AF4/AF9 protein interaction inhibition | P42568 | AlphaScreen, biotin-AF4 peptide binding to FLAG-AF9 | 0.47% of 350,000 active | inhibition, % at 10 µM;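 active means every replicate reaching a set inhibition limit, whatever the replicate mean, cut at about 25% in these data; inconclusive means mean inhibition reaches that limit but some replicates miss it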;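 further: 0% = plate neutral control median and 100% = total signal loss; the record names both 10 and 1 µM as test concentration; the first replicate is given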
# Target sequence (P42568 whole entry, looked up): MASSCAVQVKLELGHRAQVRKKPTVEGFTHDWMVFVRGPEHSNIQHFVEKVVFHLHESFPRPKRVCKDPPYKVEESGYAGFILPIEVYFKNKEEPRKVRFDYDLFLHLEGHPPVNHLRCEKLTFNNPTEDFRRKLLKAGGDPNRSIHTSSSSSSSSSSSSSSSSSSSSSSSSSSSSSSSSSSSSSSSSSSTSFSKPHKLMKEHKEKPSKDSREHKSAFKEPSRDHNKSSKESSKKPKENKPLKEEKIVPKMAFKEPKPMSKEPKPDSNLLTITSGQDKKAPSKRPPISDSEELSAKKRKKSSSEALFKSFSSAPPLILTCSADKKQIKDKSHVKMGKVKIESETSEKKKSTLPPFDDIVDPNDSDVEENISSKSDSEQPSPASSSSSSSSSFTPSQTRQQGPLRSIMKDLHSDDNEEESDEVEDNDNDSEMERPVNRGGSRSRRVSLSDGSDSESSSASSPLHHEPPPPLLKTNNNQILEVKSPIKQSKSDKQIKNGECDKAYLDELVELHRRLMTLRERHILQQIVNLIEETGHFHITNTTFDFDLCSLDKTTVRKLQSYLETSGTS
# Calb FLC: C. albicans growth modulation with fluconazole | growth inhibition, % (concentration not given with the values) | 0.57% of 300,000 active | AID 1979 | C. albicans CaCi-2 (fluconazole-resistant clinical isolate) + fluconazole, Alamar Blue growth, 48 h;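 active means most replicates above 75%; inconclusive means exactly half above 75%; inactive means most below 75%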;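 further: all wells also contain fluconazole at 8 µg/ml as a sub-toxic cotreatment; 0% = median of DMSO wells and 100% = median of geldanamycin control wells; wells of about 8 µL received 7.5 nL stock; the first replicate is given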
# Starred values were filed as active, the others as inactive; u = inconclusive; x = not tested or not shown; & = joins results of further samples. Rows were taken by chance (roughly 4.3% active in at least one column).
SMILES,T cruzi repl,RanGTP-Imp inh,Vif TR-FRET,LANA-H2A inh,Beta apoptosis,Bfl-1 A1 inh,MLL AF4-AF9 inh,Calb FLC
CCSCCOC(=O)C1=C(C)NC(=O)NC1c1cccc(OC)c1OC (stereo not drawn),-7,1.6,-2%,-0.8,-2,1.3,2.2,-2
COc1ccc(CCn2c(=N)c(C(=O)NC3CCCC3)cc3c(=O)n4cccc(C)c4nc32)cc1,50,u,x,-4.4,13,1.7,0.7,-2
C(=N\n1cnnc1)/c1nc2ccccc2[nH]1,-12,1.7,0%,-0.9,-6,1.2,x,28
CCN(Cc1ccccc1)C(=O)C1CCN(CC2CC=CCC2)CC1 (stereo not drawn),-4,3.0,x,5.6,3,-0.1,x,2
CCOc1ccc(OCC)c(NC(=O)C2CCCN(S(=O)(=O)c3c(C)n[nH]c3C)C2)c1 (stereo not drawn),18,2.1,5%&0%,3.8,-7,-0.2,0.6,19
CCCOC1CCCN(Cc2nc(-c3cnccn3)no2)C1 (stereo not drawn),0,-0.3,-5%,7.1,-7,-0.4,0.3,7
COc1ccc(NC(=O)CN2C(=O)COc3ccc(C)cc32)cc1,-11,-3.8,x,-0.8,-1,1.3,-0.2,-4
CCNC(=O)n1nccc1C(C)Oc1ccccc1 (stereo not drawn),-11,-1.2,4%,5.6,-10,1.3,x,-18
COC(C[C@@H]1O[C@@H]1[C@@H](O)[C@H](C)OCc1ccccc1)OC,-17,1.1,31%,x,x,x,-13,-6
O=C(NCCc1c[nH]c2ccccc12)C(=O)Nc1ccccc1,-32,1.7,-3%,-2.3,-3,0.1,1.6,0
O=C1CC(C(=O)Nc2ccc(F)c(Cl)c2)N=C(N2CCCCC2)N1 (stereo not drawn),6,-0.3,1%,0.8,-5,0.3,x,0
COc1ccc(OC)c(C2C3=C(CCCC3=O)Nc3c2c(=O)n(C)c(=O)n3C)c1 (stereo not drawn),0,2.8,0%,-2.2,-6,0.2,x,-4
Cc1cc(C)nc(N2CCC(C(=O)NCc3cccc(C(F)(F)F)c3)CC2)n1,-4,-2.6,7%,2.9,x,-1.8,x,-18
COC(=O)[C@H](CCSC)NC(=O)NCCc1ccccc1F,-21,-2.7,6%,0.3,-8,2.1,x,u
COc1ccc(C2NC(=O)NC(C)=C2[N+](=O)[O-])cc1OC (stereo not drawn),-3,2.6,x,-2.0,1,0.3,4.3,10
CCOC(=O)NC(=O)COC(=O)CNC(=O)c1ccc(OCC)c(OCC)c1,-10,1.7,-2%,-3.8,-8,0.3,-5.0,-9
COc1cc(OC)c2c(=O)c(OC)c(-c3ccc(OC)c(OC)c3)oc2c1,17,11,7%,1.9,6,0.6,x,14
CCOC(=O)/C(C#N)=C/Nc1ccsc1C(=O)OC,-1,-1.5,-16%,4.3,10,-0.6,x,2
O=C(NC1CCCC1)C(c1cccs1)N(C(=O)c1ccco1)c1ccc2c(c1)OCCO2 (stereo not drawn),8,-2.9,-3%&0%,0.6,2,1.2,x,-26
FC(F)(F)c1ccc(-c2noc(CN3CCCN(C4CCCCC4)CC3)n2)cc1,37,-1.3,2%,-0.6,-4,0.2,-1.5,6
O=C(Cc1ccc(Cl)cc1)NCCS(=O)(=O)N1CCN(c2ccccc2F)CC1,0,4.5,-3%,4.8,3,0.2,0.6,-7
COc1ccccc1NC(=O)CSc1nn2c(=O)c(C)nnc2s1,-14,3.5,x,-3.2,-6,0.5,-6.4,-5
COc1ccc(C2CC(=O)c3cnc(NC(=O)c4ccccc4)nc3C2)cc1OC (stereo not drawn),2,2.2,0%,x,x,x,3.1,15
COc1ccc(C2=NOC(CNC(N)=S)C2)cc1 (stereo not drawn),-8,-1.5,0%,-1.9,0,-7.4,0.3,u
Cc1ccc(-c2csc(N(CC3CCCO3)C(=O)c3ccco3)n2)cc1 (stereo not drawn),28,0.6,-6%,2.2,7,0.4,x,35
COC(=O)C1=CN(c2ccc(OC)cc2)C=C(C(=O)OC)C1c1cccc(F)c1,27,17*,x,-2.0,10,0.2,-0.3,-5
Cc1c(NC(=O)C2CCN(S(=O)(=O)c3ccccc3)CC2)c(=O)n(-c2ccccc2)n1C,-6,1.2,1%,2.0,1,-0.8,x,-11
CN(C)c1ccc(CNC(=O)CN(C)S(=O)(=O)c2cccc3cccnc23)cc1,4,-2.5,9%,1.5,x,-0.2,-0.5,-7
O=C(NCC(c1cccnc1)N1CCOCC1)Nc1ccccc1 (stereo not drawn),-3,2.3,32%,-0.9,-10,1.2,x,29
COC(=O)c1c(C)[nH]c(C(=O)CN2C(=O)C3CC=CCC3C2=O)c1C (stereo not drawn),x,x,x,-3.8,-2,0.6,-1.1,x

# Brought forward from above: two entries; new compounds follow.
SMILES,T cruzi repl,RanGTP-Imp inh,Vif TR-FRET,LANA-H2A inh,Beta apoptosis,Bfl-1 A1 inh,MLL AF4-AF9 inh,Calb FLC
O=C(NCC(c1cccnc1)N1CCOCC1)Nc1ccccc1 (stereo not drawn),-3,2.3,32%,-0.9,-10,1.2,x,29
COC(=O)c1c(C)[nH]c(C(=O)CN2C(=O)C3CC=CCC3C2=O)c1C (stereo not drawn),x,x,x,-3.8,-2,0.6,-1.1,x
COc1ccc(Cc2nnc(NS(=O)(=O)c3ccccc3)s2)cc1,12,1.3,5%,-3.5,-1,-0.3,-1.9,-5
COc1ccccc1NC(=O)Nc1nc(CC(=O)N2CCN(c3ccc(F)cc3)CC2)cs1,-6,1.9,-6%,-2.0,x,-0.2,4.7,-1
O=C(NC(Cc1cccc(F)c1)C(=O)O)C1CCCCC1 (stereo not drawn),x,x,x,2.0,1,-0.6,2.1,x
O=C(CNc1cccc(S(=O)(=O)N2CCCC2)c1)Nc1cccc(C(F)(F)F)c1,x,x,x,-0.5,3,u,-2.6,x
C[C@H]1CN([C@@H](C)CO)C(=O)Cc2cc(NC(=O)Cc3ccccc3)ccc2O[C@H]1CN(C)C(=O)Nc1cccc2ccccc12,x,x,x,-3.6,-1,1.5,-2.3&0.0,x
COc1cccc(N2CC(C(=O)Nc3nnc(SCc4ccccn4)s3)CC2=O)c1 (stereo not drawn),-9,0.0,4%,-7.5,-2,-0.6,x,1
CC1CN(Cc2nc3c(c(=O)[nH]c(=O)n3C)n2CCN2CCOCC2)CC(C)O1 (stereo not drawn),-3,-2.9,25%,5.8,-2,0.2,x,3
CCc1nnc(NC(=O)C2CCN(c3ncnc4sc(C)c(C)c34)CC2)s1,x,x,-26%,-258,-11,0.2,-0.7,x
CN(C)C=Nc1ccc2nc3c(cc2c1)[nH]c1ccccc13,15,11,x,2.6,25,-0.2,11,13
Cn1c(=O)c(C(=O)CSc2ccccc2)c(N)n(Cc2ccccc2)c1=O,8,3.3,-10%,-0.8,7,-1.1,-10,3
CCOC(=O)Nc1c(C)n(C)n(-c2ccccc2)c1=O,5,-0.7,3%&31%,0.5,x,0.3,x,-4
CCOC(=O)N1CCN(C(=O)C2CCN(S(=O)(=O)c3c(C)cc(C)cc3C)CC2)CC1,-3,11,21%,3.7,5,0.4,x,15
COCCCNC(=O)C(=O)NCCCOC(C)C,-11,2.5,-7%,3.0,-2,0.0,x,-23
COc1ccc(C(CNC(=O)Cc2cc(OC)c(OC)c(OC)c2)N2CCCC2)cc1 (stereo not drawn),10,1.1,10%,1.1,-3,0.6,x,u
CC(=O)N(c1ccc(C(F)(F)F)cc1)S(=O)(=O)c1ccc(N2C(=O)CCC2=O)cc1,-10,0.1,x,-5.7,-1,-1.5,-2.8,-19
Cc1ccc(C(=O)NCCOc2cccc(C)c2)cc1,-19,3.5,1%,-8.3,3,-0.7,-7.1,-8
Cc1ccc(-n2ncc(C#N)c2/N=C/N(C)C)cc1,-5,10,-1%,4.0,-3,0.4,x,11
CCCCN1C=C(C(=O)OC)C(c2ccccc2Cl)C(C(=O)OC)=C1,45,96*,-3%,0.9,0,0.2,0.9,7
CCOC(=O)C1C(C)N=C2SCC(=O)N2C1c1cccc(Br)c1 (stereo not drawn),-9,1.1,3%,-2.0,x,-0.3,x,-5
O=C(NN1C(=O)c2ccccc2C1=O)c1ccccc1[N+](=O)[O-],-4,x,5%,0.4,-4,0.3,-2.5,5
COc1ccccc1C(=O)NC(=O)COC(=O)c1cnc(C)cn1,-5,5.5,5%,-0.5,-6,0.5,-2.6,x
Cc1nnc(SCc2ccc(C(=O)c3ccc(Cl)cc3)o2)n1-c1ccccc1,1,-2.3,2%&3%,-1.7,-9,0.0,4.0,-2
Cc1cc2cc(C(c3nnnn3Cc3ccco3)N3CCCCC3)c(=O)[nH]c2cc1C (stereo not drawn),16,2.2,u,4.3,-3,-1.1,x,5
Cc1ccc(NC(=O)N2CCc3ccccc3C2)c(C)c1,4,1.0,1%,3.9,-3,-0.1,-0.1,1
Cc1nc(CC(C)C)cc(C(=O)N2CCCC(CNS(=O)(=O)c3cccs3)C2)n1 (stereo not drawn),-5,5.9,-2%,-0.7,-4,0.3,-10.0,-3
CCCCCCc1nc2ccccc2c(=O)n1NC(=O)c1c(O)c2cccc3c2n(c1=O)CCC3,-23,3.0,3%,x,x,x,x,22
COc1ccc(N2CCN(C(c3cccs3)C(C)NC(=O)C(=O)N3CCCCC3)CC2)cc1 (stereo not drawn),-4,0.4,x,-0.6,-1,0.2,5.3,-16
COc1ccc(N2CCN(C(CNC(=O)c3ccco3)c3ccco3)CC2)cc1 (stereo not drawn),-2,-3.4,0%,4.1,0,0.4,6.9,2
COc1ccccc1C(=O)NCc1ccncc1,-14,-3.3,3%,3.2,-2,0.5,x,-17
Cc1ccc2cccc(OCc3ccc(F)cc3)c2n1,-13,-3.2,x,-1.1,-6,1.4,-1.6,-17
CC(=O)COc1ccccc1OC(=O)c1ccco1,-9,2.8,5%,0.6,-7,0.2,x,-3
COc1cc(C2C(C(C)=O)=C(O)C(=O)N2CCN2CCOCC2)ccc1O (stereo not drawn),4,0.5,-2%,-4.7,1,-0.3,x,0
CCCCN(C)C(=O)Cn1nc(-c2ccc(Cl)cc2)ccc1=O,-5,-0.3,-2%,-3.2,-6,0.1,-1.4,-1
CN(C)c1ccc(CNc2ncn[nH]2)cc1,6,-1.0,11%,1.6,-7,1.1,-1.2,28
COC(=O)Cc1c(C)c2ccc(OCC(=O)N(C)C)cc2oc1=O,-14,-2.0,4%,4.3,0,-0.3,x,32
O=C(NCc1ccco1)c1ccc(CS(=O)Cc2cccc(Cl)c2)o1 (stereo not drawn),11,-0.2,x,4.0,-4,1.6,0.9,16
CC1CC(C)CN(C(=O)CSc2ncnc3sccc23)C1 (stereo not drawn),x,x,8%,x,-3,-0.2,-8.3,x
CCc1ccc(-c2cc(C)no2)cc1S(=O)(=O)Nc1cccc(CN2CCCC2)c1,28,2.1,x,3.0,-5,-0.8,1.4,-2
COC(=O)c1cc(NC(=O)CSc2ncn[nH]2)ccc1Cl,0,-4.2,-3%,x,x,x,1.3,9
O=C(CSc1ncnc2c1oc1ccccc12)Nc1nccs1,-13,-4.2,5%,-1.8,0,1.3,-0.5,-6
